Bioassay records as filed in PubChem BioAssay.
gsp ag: gsp mutant agonism; gsp mutant cells, cAMP HTRF, 30 min; control for the full effect not named in the record; Potency, µM (series often up to 76.9 µM), for inactives: at the highest dose activation (cAMP increase), hits mostly activators; 0.13% of 340,000 active; AID 624287; active = well fitted activation curve with a large enough effect; inconclusive = small, poorly fitted or top-dose-only effect, or another doubt; inactive = no such curve, though single readings can be large or run the other way; cell line not stated here;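 also: phosphodiesterase inhibitor Ro 20-1724 added with compounds to block cAMP breakdown; potency is read from the fitted curve at half-maximal effect; nearly all actives have a fitted effect of over 60% in size; about a fifth of the inactives were tested at one dose only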
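Cells stably selected in G418 were plated at 2000/well, grown 16-24 hr, then given compounds in DMSO with the PDE inhibitor […] (300 uM solution added) for 30 min at 37C; cAMP was read by HTRF.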
D2 PAM: positive allosteric modulators of human D2 dopamine receptor | P14416 | DiscoveRx D2 beta-arrestin cells, luminescence, 90 min; 100% = 57 uM dopamine signal | potentiation, % (no concentration beside the values) | 0.23% of 360,000 active; active = potentiation of 50% or more; inconclusive = 30% to 50%; inactive = 30% or less;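 also: compound concentration not given in the record; tested on top of an EC20 dose of dopamine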
Target sequence (P14416 whole entry, looked up): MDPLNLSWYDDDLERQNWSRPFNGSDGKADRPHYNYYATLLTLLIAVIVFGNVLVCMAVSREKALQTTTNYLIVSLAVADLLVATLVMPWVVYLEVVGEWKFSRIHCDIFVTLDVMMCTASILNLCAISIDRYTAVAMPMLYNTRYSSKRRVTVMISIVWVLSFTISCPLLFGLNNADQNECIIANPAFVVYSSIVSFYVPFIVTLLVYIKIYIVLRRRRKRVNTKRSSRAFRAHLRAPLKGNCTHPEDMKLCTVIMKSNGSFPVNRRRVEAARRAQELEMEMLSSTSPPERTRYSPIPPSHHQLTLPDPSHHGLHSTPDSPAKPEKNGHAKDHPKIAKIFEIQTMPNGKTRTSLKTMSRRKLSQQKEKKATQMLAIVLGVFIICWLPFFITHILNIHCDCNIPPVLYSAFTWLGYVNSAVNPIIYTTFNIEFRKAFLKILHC
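PathHunter D2 cells, attached overnight at 37 deg C, received compound in DMSO plus dopamine at EC20 (50 nM final) for 90 min at 37 deg C. Beta-arrestin recruitment was read as luminescence after 1 h with detection reagent at ambient temperature.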
CtBP-E1A inh: inhibitors of CtBP/E1A interaction; AlphaScreen GST-E1A/His-CtBP binding, 1536-well; hits give low values; control for the full effect not named in the record; activity change, % (no concentration beside the values); 0.49% of 340,000 active; in the data active means activity change below about -65%; inconclusive means about -30% to -65%; inactive means above about -30%; also: % is scaled to controls: 0 for no effect and ±100 for the full control effect; compound concentration not given in the record
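Steps: dispense buffer (Tris pH 8.0, NaCl 300 mM, TCEP 1 mM, BSA, Tween 20); add 5X protein mix (GST-E1A, His-CtBP, 125 nM each); pin 23 nL compound; 2 h at 37 °C, dark; add 5X beads (50 ug/mL); 1 h; read.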
D2 agonist: activates the human D2 dopamine receptor | P14416 | DiscoveRx PathHunter D2 beta-arrestin, luminescence, 90 min; 100% = 57 uM dopamine signal | activation, % (test concentration not listed) | 0.084% of 360,000 active; in the data active = activation above about 40%; inconclusive = about 15% to 40%; inactive = below about 15%; also: compound concentration not given in the record; the text of the record calls up to 30% inactive
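DiscoveRx PathHunter D2 beta-arrestin cells (2,100/well) attached overnight, then compound-stimulated 90 min at 37 C in HBSS/10 mM HEPES/0.1% Tween-20 buffer; beta-galactosidase complementation read by luminescence after 1 h at ambient temperature. Dopamine 57 uM final (EC100) as control.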
gsp antagonist: antagonists of gsp mutant (McCune-Albright syndrome). gsp-mutant cells, cAMP HTRF, 30 min; control for the full effect not named in the record. Potency, µM (titrated, usually from 76.9 µM), inactives show at the highest dose activity change, negative = inhibition, usual class: inhibitors. 0.4% of 340,000 active. AID 624288; active = falling curve of any shape with a large fitted effect; inconclusive = falling curve, mostly with a smaller effect; inactive = flat or rising curve; cell line not stated here;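 also: intracellular cAMP measured with PDE inhibitor Ro 20-1724 present during compound exposure; potency is read from the fitted curve at half-maximal effect; % is scaled to controls: 0 for no effect and ±100 for the full control effect; nearly all actives have a fitted effect of over 65% in size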
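Cells, 2000/well, grown 16–24 h in DMEM 10% FBS with 0.5 mg/ml G418, then compounds plus […] (300 uM addition stock), 30 min at 37C. cAMP read by HTRF (cAMP-d2 and anti-cAMP antibody-K in lysis buffer) after 30 min RT.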
Six1-Eya2 inh: blocks human Six1 binding to Eya2 | Q15475+O00167 | AlphaScreen GST-Six1/His-Eya2 binding, biochemical; hits give low values; control for the full effect not named in the record | activity change, % (test concentration not listed) | 0.56% of 360,000 active | AID 651725; in the data active = activity change below about -65%; inconclusive = about -30% to -65%; inactive = above about -30%; also: % is scaled to controls: 0 for no effect and ±100 for the full control effect; compound concentration not given in the record
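Six1/Eya2 binding was read as AlphaScreen signal after compounds were pinned into GST-Six1 plus His-tagged Eya2 (5X stock 250/500 nM) in pH 8.0 Tris/NaCl/TCEP buffer, beads added, then incubated 1 h, 37 C, dark.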
* marks the source's active call; other numbers are inactive results; ? = inconclusive; · = no result given; [ ] = another dose, or the depositor's remark.

canonical_smiles	gsp ag	D2 PAM	CtBP-E1A inh	D2 agonist	gsp antagonist	Six1-Eya2 inh
C[C@@H]1C2CC(C/C2=N\NC(=O)c2ccncc2)C1(C)C (some centres undefined)	5%	-5	·	-3.3	6%	10
O=C(Cn1c(C(=O)N2CCc3ccccc3C2)cc2sccc21)c1ccccc1	20%	-17	-14	-1.7	0%	?
COc1ccccc1OC(=O)Nc1ccc(Cl)cc1	-1%	-12	-8	-6.7	10%	-4
O=C(Nc1nc(-c2cccc(Br)c2)cs1)Oc1ccccc1	-11%	-1	1	0.3	-12%	-14
COc1ccccc1N1CCN(CCN2C(=O)CC(=C3c4ccccc4-c4ccccc43)C2=O)CC1	-16%	-39	-10	-1.8	-1%	-18
Cc1ccc(C(=O)COC(=O)c2ccc(Br)o2)cc1C	-61%[inhibitor]	-9	17	-2.4	-28%	11
COc1cc2nc3occc3c(OC)c2cc1OC	7%	-6	-23	-0.4	7%	-29
COc1ccc(N=Nc2ccc3ccccc3c2)c(O)c1	-22%	5	·	-1.8	4%	?
COc1ccc(NC(=O)N2CCNC(=O)C2CC(=O)Nc2ccc(F)cc2)cc1 (centres undefined)	-12%	7	-2	-3.2	8%	10
Oc1ccccc1C1Nc2cccc3cccc(c23)N1	-14%	61*	-14	13	6%	-5
CC(=O)Nc1ccc(CNc2nc3cc(-c4ccccc4C)sc3c(=O)n2C)cc1	·	-3	-2	7.5	·	-10
CCn1c(SCC(=O)N/N=C(\C)c2ccncc2)nnc1-c1ccc(C)cc1	12%[15.4 µM]	-9	2	-1.0	-12%	1
CC(=O)c1ccc(OCc2cc(C(=O)NC3CCCCC3)no2)cc1	2%	-15	-16	-1.4	10%	-10
CC1CCCC(C)N1C(=O)CN1C(=O)C(C)(C)Oc2ccc(C(=O)NC3CCCCC3)cc21 (centres undefined)	3%	-6	0	1.1	-9%	5
CCC(=O)N(CCCN(C)C)c1nc(-c2cc(OC)ccc2OC)cs1	1%	-15	-3	0.0	16%	-4
O=C(Nc1ccc(S(=O)(=O)Nc2nccs2)cc1)C1CC(=O)N(c2ccc(Cl)cc2)C1 (centres undefined)	16%[15.4 µM]	-4	4	-2.4	-36%	-16
O=C(O)C(Cc1c[nH]c2ccccc12)N1C(=O)C2C3c4ccccc4C(c4ccccc43)C2C1=O (centres undefined)	-10%[15.4 µM]	-9	19	-3.9	·	30
O=C(c1ccccc1[N+](=O)[O-])N1CCC(Cc2ccccc2)CC1	-4%	-1	32	0.3	-19%	18
CC(C)CC(C(=O)OCC(=O)c1c(N)n(C)c(=O)n(C)c1=O)N1C(=O)c2ccccc2C1=O (centres undefined)	7%	-25	-18	-5.0	11%	-18
CC12CCC(=O)N1C(C(=O)Nc1ccc(Cl)c(Cl)c1)CS2 (centres undefined)	-8%[15.4 µM]	-1	-5	-2.5	1%	2
NC(=O)c1cccnc1OCC(F)(F)F	-5%[15.4 µM]	-7	3	-23	11%	-11
COc1cccc(NC(=O)c2cc(S(=O)(=O)N3CCc4ccccc43)cn2C)c1	-58%[inhibitor]	0	1	-0.9	1%	-9
O=C(Cc1cccs1)N1CCN=C1SCc1ccccc1Cl	27%[15.4 µM]	1	-5	-1.7	-85%	21
CC(=O)NCCn1c(SCc2ccc(C)cc2)nc2ccccc2c1=O	7%	7	3	-1.7	-23%	-2
O=C(NN1CCN(Cc2ccccc2)CC1)c1ccc(Cl)cc1	20%[15.4 µM]	-27	-1	-0.4	·	10
CCN(C(=O)COC(=O)/C=C/c1cccc(Cl)c1)c1c(N)n(Cc2ccccc2)c(=O)[nH]c1=O	?	1	-8	0.6	6%	0
Cc1cc(N2CC(C(=O)O)CC2=O)ccc1Br (centres undefined)	-12%	8	27	-4.0	3%	0
COc1cc(C2C3=C(COC3=O)Oc3cc4c(cc32)OCO4)cc(OC)c1OC (centres undefined)	38%	-11	3	-4.1	5%	9
COc1ccccc1NCCC(=O)O	0%	-4	0	-4.6	2%	3
CN(C)S(=O)(=O)c1cccc(NC(=O)COC(=O)c2c[nH]c(=O)[nH]c2=O)c1	6%[15.4 µM]	0	-2	-3.2	-2%	5
O=C(COc1ccccc1)NC(=S)N1CCc2ccccc21	0%	-3	-2	-1.9	1%	-10
COc1ccccc1N1C(=O)C2C3C=CC(CC3)C2C1=O (centres undefined)	-34%	-6	2	-6.5	4%	-2
COc1ccccc1NC(=O)C1=C(C)NC(SCC(=O)c2ccccc2)=C(C#N)C1c1ccco1 (centres undefined)	-2%	5	-12	0.0	-11%	-1
COc1ccc(C(=O)CN2C(=O)NC3(CCc4ccccc43)C2=O)c(OC)c1 (centres undefined)	-1%	4	-5	-0.1	-3%	3
Cc1cccc(N2CCN(C(=O)[C@H](C)N3C(=O)C4CC=CCC4C3=O)CC2)c1C (some centres undefined)	1%	-2	3	-3.9	-8%	8
FC(F)(F)c1nc(-c2cccnc2)ncc1-c1nnnn1-c1ccccc1	4%	-5	-8	-1.2	?	-3
CCOC(=O)Cc1csc(SCC(=O)Nc2nccs2)n1	15%[15.4 µM]	-4	-4	-1.4	1%	-5
Clc1ccc(-c2nnc(-c3ccco3)nc2N2CCCCC2)cc1	-5%	-13	-22	-1.2	-14%	-12
CCN(CC(=O)N1CCC(C)CC1)S(=O)(=O)c1ccc(C)cc1	-22%	-10	1	-4.3	-9%	9
COCCN(C(=O)CCC(=O)Nc1nccs1)C(C(=O)NC(C)(C)C)c1ccc(F)cc1 (centres undefined)	-1%[15.4 µM]	-3	6	-0.7	-2%	0
CC1CC(C)CN(C(=O)CCNS(=O)(=O)c2ccc3c(c2)CCC(=O)N3)C1 (centres undefined)	7%[15.4 µM]	-3	14	-3.9	5%	-3
COc1cc(NC(=O)C2CCN(S(=O)(=O)c3cccnc3)CC2)cc(OC)c1OC	-12%	-8	-6	-1.0	5%	3
CCC(=O)Nc1sc2c(c1C#N)CCCCC2	10%	-21	-3	-3.1	-7%	-2
CN(C)c1cccc2c(S(=O)(=O)N3CCCC3)cccc12	?	-8	·	11	0%	24
O=C(O)COc1c(F)c(F)c(C(F)(F)F)c(F)c1F	-3%	-5	5	-1.6	1%	0
Cc1cc(N2CCN(c3cccc(C)c3C)CC2)nc(-c2ccccc2)n1	12%	-4	-11	1.3	-2%	2
O=C(CN1CCC(O)(c2ccccc2F)CC1)NCCc1c[nH]c2ccccc12	-26%	-23	4	-0.3	4%	0
COc1cccc(NC(=O)CCN2CCC(C(N)=O)CC2)c1	-5%	-8	4	-1.0	8%	-1
Cc1ccc(CC(=O)Nc2cccc(S(=O)(=O)N3CCOCC3)c2)cc1	-14%	1	-1	-1.2	9%	-1
C#CCOCCOCCOCCNc1nc(N2CCN(C(=O)[C@H]([C@@H](C)CC)n3cc(CCC(=O)O)nn3)CC2)nc(N2CCN(C(=O)[C@H](Cc3ccc(O)cc3)n3cc(CCO)nn3)CC2)n1	·	0	2	-1.1	3%	-5
COc1cc([N+](=O)[O-])ccc1NC(=O)Oc1ccc(NC(C)=O)cc1	-34%[inhibitor]	-26	·	-1.9	-1%	-2
CCN(CC)c1ccc(N2C(=O)/C(=C/c3ccccn3)SC2=S)cc1	-2%[15.4 µM]	1	-7	-3.2	2%	8
COP(=O)(OC)C(Nc1ccc(C)cc1)c1ccc(Br)cc1 (centres undefined)	?	-3	-16	-5.6	-3%	3
O=Cc1cn(CC(O)Cn2cc(C=O)c3ccccc32)c2ccccc12	20%[15.4 µM]	-6	-2	-1.6	-15%	1
CCOC(=O)C1CCCN(C(=O)C(C)Oc2ccc(Cl)cc2Cl)C1 (centres undefined)	-6%	-2	3	-1.1	-2%	6
CC(C)CNC(=O)c1cccc(C(=O)NCC(C)C)c1	-36%[inhibitor]	4	5	1.1	-2%	4
Cc1cccc(N2CCN(C3=NC(=O)C(=C4CCCCC4)S3)CC2)c1	-31%[inhibitor]	-4	-1	-1.9	-36%	-3
CCOC(=O)c1cn(CC)c2cc(N3CCN(C)CC3)c(F)cc2c1=O	-2%	-2	·	-3.6	1%	0
CCc1nc2c(OCc3ccc(C(=O)OC)cc3)cccn2c1N(C)C(=O)C(C)C	·	-14	1	-3.1	·	2
COCCNc1nc2sc3c(c2c(=O)n1Cc1ccco1)CCCCC3	-4%	-9	2	-3.1	-18%	-3

(cont.)
canonical_smiles	gsp ag	D2 PAM	CtBP-E1A inh	D2 agonist	gsp antagonist	Six1-Eya2 inh
COc1cc(OC)c(C2Nc3cccc4cccc(c34)N2)c(OC)c1	7%	-11	-21	10	?	-4
O=C(OCC(=O)N1CCc2ccccc21)[C@@H]1CCCN1S(=O)(=O)c1ccccc1F	?	2	-8	-1.6	-9%	-4
O=C(NCc1ccccc1CN1CCCC1)c1cccc(S(=O)(=O)N2CCOCC2)c1	27%	-35	·	-3.0	11%	0
CC[N+]1=C(C)C(C)(C)c2cc(C)ccc21	-8%	-9	-5	-1.8	-25%	-11
Cc1ccccc1NC(=S)N(CCCN1CCOCC1)Cc1ccccn1	-7%[15.4 µM]	-21	-2	0.3	0%	-16
CC(C)N(C(=O)CN(C#N)c1nc(N(C)C)nc(N(C)C)n1)c1ccccc1	-58%	-15	9	-3.0	-16%	-1
Cc1cc(C)cc(NC(=S)N2CCN(c3ncccn3)CC2)c1	16%	-10	·	0.0	-13%	-2

3 entries already listed, arranged by molecular weight, falling.
canonical_smiles	gsp ag	D2 PAM	CtBP-E1A inh	D2 agonist	gsp antagonist	Six1-Eya2 inh
CC(C)N(C(=O)CN(C#N)c1nc(N(C)C)nc(N(C)C)n1)c1ccccc1	-58%	-15	9	-3.0	-16%	-1
COc1cc(OC)c(C2Nc3cccc4cccc(c34)N2)c(OC)c1	7%	-11	-21	10	?	-4
Cc1cc(C)cc(NC(=S)N2CCN(c3ncccn3)CC2)c1	16%	-10	·	0.0	-13%	-2
